# Screening results deposited in PubChem by National Center for Advancing Translational Sciences (NCATS).
# Cruzain noTriton – qHTS Assay for Promiscuous and Specific Inhibitors of Cruzain (without detergent) | Cruzipain (Trypanosoma cruzi), P25779 | purified cruzain, Z-FR-AMC fluorescence, no detergent | Potency, µM, inactives show max response, negative = inhibition, actives largely listed as inhibitors | 200,000 compounds, 2.3% hits; active means well fitted curve in the direction sought with a large enough effect; inconclusive means small, poorly fitted or top-dose-only effect, or another doubt; inactive means no such curve, though single readings can be large; an effect the other way counts as inactive or inconclusive;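 further: plate controls were enzyme without inhibitor for no effect and buffer without enzyme for full effect; nearly all actives have a fitted effect of over 40% in size; top concentration of the series not given in the record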
# Target sequence (P25779 123-467 limits assumed): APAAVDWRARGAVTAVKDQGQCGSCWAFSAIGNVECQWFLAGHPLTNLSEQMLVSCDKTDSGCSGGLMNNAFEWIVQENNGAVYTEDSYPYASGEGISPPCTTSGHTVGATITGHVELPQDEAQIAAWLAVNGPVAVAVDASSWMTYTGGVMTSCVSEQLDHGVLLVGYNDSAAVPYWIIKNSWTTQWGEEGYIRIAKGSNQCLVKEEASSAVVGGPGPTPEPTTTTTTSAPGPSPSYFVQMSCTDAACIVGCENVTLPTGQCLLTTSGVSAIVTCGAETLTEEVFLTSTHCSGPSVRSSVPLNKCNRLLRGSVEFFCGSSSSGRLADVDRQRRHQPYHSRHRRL
#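 Detergent-free condition (0.00005% Triton X-100) in acetate buffer pH 5.5 with DTT. 1.5 nM enzyme and compound were pre-mixed 15 min, then 2 uM Z-FR-AMC substrate added; reaction progress from fluorescence change between first and third reads (60 s).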
# SARS PLpro yeast – qHTS of Yeast-based Assay for SARS-CoV PLP; S. cerevisiae expressing SARS-CoV PLpro, growth rescue; control for the full effect not named in the record; Potency, µM (series often up to 32.9 µM), without a hit: at the highest dose activity, positive = growth rescue; 330,000 compounds, 0.19% hits; AID 485353, 2010; further: 0% is about no effect; nearly all actives have a fitted effect of over 55% in size; growth read by luminescence after 48 h
# NS1 function inh – qHTS Assay for Inhibitors of Influenza NS1 Protein Function; S. cerevisiae slowed by influenza A NS1, growth recovery by OD600; Potency, µM (highest dose often 46.1 µM), for inactives: at the highest dose activity, positive = more growth; 270,000 compounds, 0.4% hits; further: actives are rising curves; nearly all actives have a fitted effect of over 50% in size
#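 In this qHTS, NS1 from influenza A is expressed in budding yeast, where it slows growth. Cells are switched from glucose to 2% galactose medium (pH 6.0, -URA), treated with compound, and growth recovery is read at OD600.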
# Marburg entry inh – qHTS for inhibitors of binding or entry into cells for Marburg Virus | AID 540276, 2011 | 300,000 compounds, 1.8% hits | Marburg virus pseudotyped entry inhibition, cell reporter; control for the full effect not named in the record; about a third of the inactives were read at about 46 µM | Potency, µM (series often up to 37.8 µM), inactives show at the top dose activity change, negative = inhibition, hits mostly inhibitors; active = well fitted inhibition curve with a large enough effect; inconclusive = small, poorly fitted or top-dose-only effect, or effect the other way; inactive = flat fitted curve, though single readings scatter; tested in HEK293 cells; about a fifth of its hits are not listed in these tables; further: on the % scale 0 is the no-effect control and ±100 the full control effect; luciferase read-out
# StopGo reporter – High Throughput Screening for Foot and Mouth Disease Virus Antivirals | human cells with a luciferase reporter of 2A StopGo recoding; control for the full effect not named in the record | Potency, µM (titrated, usually from 57.9 µM), inactives show at the highest dose signal change, negative = less light | 410,000 compounds, 1.2% hits; active = well fitted falling curve with a large enough effect; inconclusive = small, poorly fitted or top-dose-only effect; inactive = no such curve, though single readings can be large or run the other way; tested in HEK293T cells; further: on the % scale 0 is the no-effect control and ±100 the full control effect; nearly all actives have a fitted effect of over 45% in size; luciferase light after 4 h
# Lassa entry inh – qHTS for Inhibitors of binding or entry into cells for Lassa Virus | Lassa virus pseudotype entry inhibition, cell reporter; control for the full effect not named in the record | Potency, µM (titrated, usually from 37.9 µM), for inactives: at the highest dose activity change, negative = inhibition, hits mostly inhibitors | 300,000 compounds, 1.2% hits; active means well fitted inhibition curve with a large enough effect; inconclusive means small, poorly fitted or top-dose-only effect, or effect the other way; inactive means flat fitted curve, though single readings scatter; tested in HEK293 cells; further: on the % scale 0 is the no-effect control and ±100 the full control effect; nearly all actives have a fitted effect of over 50% in size; luciferase read-out
# Cruzain inh Det – qHTS Assay for Promiscuous and Specific Inhibitors of Cruzain (with detergent) | Potency, µM, inactives show max response, negative = inhibition, usual class: inhibitors | purified cruzain, Z-FR-AMC fluorescence, 0.01% Triton | 200,000 compounds, 0.43% hits | Cruzipain (Trypanosoma cruzi), P25779; active means well fitted curve in the direction sought with a large enough effect; inconclusive means small, poorly fitted or top-dose-only effect, or another doubt; inactive means no such curve, though single readings can be large; an effect the other way counts as inactive or inconclusive;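 further: plate controls were neutral wells for no effect and buffer without enzyme for full effect; nearly all actives have a fitted effect of over 40% in size; top concentration of the series not given in the record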
#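 Purified cruzain (1.5 nM final) was preincubated with compounds for 15 min at room temperature in 100 mM sodium acetate pH 5.5, 5 mM DTT, 0.01% Triton X-100. Reaction started with 2 uM Z-FR-AMC; AMC fluorescence change over 60 s gave activity.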
# RE007 growth inh – qHTS Assay for Inhibitors of the HIV-1 protein Vpr; S. pombe RE007 Vpr strain, BacTiter-Glo ATP luminescence, 24 h; control for the full effect not named in the record; Potency, µM (top dose mostly 92.2 µM), for inactives: top-dose activity change, negative = less growth; 360,000 compounds, 0.21% hits; active = well fitted falling curve with a large enough effect; inconclusive = small, poorly fitted or top-dose-only effect; inactive = no such curve, though single readings can be large or run the other way;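 further: on the % scale 0 is the no-effect control and ±100 the full control effect; nearly all actives have a fitted effect of over 50% in size; the assay follows cell death caused by Vpr and the record does not say whether a fall means rescue or toxicity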
#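 Fission yeast RE007 carrying one integrated HIV-1 vpr copy, seeded at OD 0.01 in PMG+AL medium with 23 nL pinned compound. Grown 24 h at 30 degrees; viability read by BacTiter-Glo luminescence after 5 min.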
# * marks the source's active call; other numbers are inactive results; ? = inconclusive; nt = not tested or not shown; [ ] = another dose, or the depositor's remark. Unless noted, the call rests on the fitted dose curve; in most records, active means well fitted rising curve with a large enough effect; inconclusive means small, poorly fitted or top-dose-only effect; inactive means no such curve, though single readings can be large or run the other way. Potency means the concentration at half of the fitted maximal effect.
SMILES,Cruzain noTriton,SARS PLpro yeast,NS1 function inh,Marburg entry inh,StopGo reporter,Lassa entry inh,Cruzain inh Det,RE007 growth inh
NS(=O)(=O)c1ccc(CCNC(=O)CCCNC(=O)c2ccc(Cl)cc2)cc1,nt,3.9%,-7.5%,-4.8%[46.1 µM],-3.2%,0.2%,nt,-5.0%
O=C(Nc1ccccc1)Nn1cnnc1,nt,-1.3%,4.1%,-2.7%[46.1 µM],-4.3%,15.2%[46.1 µM],nt,-9.4%
CCOC(=O)Cn1nc(-c2ccc(F)cc2)oc1=O,-7.5%,10.8%,4.5%,?,7.7%,1.2%,2.2%,-12.7%
COc1ccc(/C=N/NC(=S)Nc2ccccc2)cc1COc1cccc(C)c1C,nt,-0.5%,8.7%,nt,-16.4%,nt,nt,5.5%
COc1ccc(-c2nn(-c3ccccc3)cc2C(=O)NC2CCC(C)CC2)cc1 (stereo not given),nt,4.5%,nt,18.4%[46.1 µM],12.4%,5.6%,nt,-3.5%
COC(=O)c1c(NC(=O)CN2CCN(c3ncccn3)CC2)sc(C(N)=O)c1C,nt,-1.4%,5.2%,12.3%[46.1 µM],0.0%,-15.4%[46.1 µM],nt,9.5%
COc1ccccc1NC(=O)Cc1nnc(SCC(=O)Nc2ccc(F)cc2F)n1C,nt,1.4%,5.9%,13.5%[46.1 µM],2.5%,7.3%[46.1 µM],nt,4.1%
COC(=O)c1c(C(=O)OC)c(-c2ccc(F)cc2)n2c1CSC2,nt,-0.9%,-5.8%,nt,-7.2%,nt,nt,4.8%
O=C(NC1CC(=O)N(c2cccc(F)c2)C1)C1CC1 (stereo not given),7.3%,nt,nt,nt,-16.1%,10.9%[46.1 µM],0.1%,nt
O=C(NCC(c1cccnc1)N1CCc2ccccc21)c1cccc(Br)c1 (stereo not given),5.3%,nt,nt,nt,0.0%,?,-3.5%,nt
COc1ccc2[nH]c3c(=O)n(/N=C/[C@H]4C(C)C=C(C)CC4C)c(=O)[nH]c3c2c1 (stereo not given in full),-12.7%,8.8%,27.6%,-31.3%,?,-4.3%,-3.3%,4.3%
O=C(O)Cn1c(=O)cnc2ccccc21,-11.2%,12.9%,3.8%,6.4%,-18.1%,10.7%,1.6%,-13.1%
CCc1noc(C)c1C(=O)N1CCCC(CCC(=O)NCc2ccc(F)c(F)c2)C1 (stereo not given),nt,0.5%,-0.2%,-12.3%[46.1 µM],10.1%,-2.0%[46.1 µM],nt,2.1%
Cc1cc(C)c2[nH]c(=O)c(CN(Cc3ccccc3)C(=S)NCCCN(C)C)cc2c1,nt,0.6%,-1.9%,nt,-15.7%,nt,nt,0.7%
COC(=O)c1ccc(N/C(C)=C/C(=O)c2ccc(C)o2)cc1,4.9%,-2.8%,-45.6%,20.4%,31.2%[activator],3.4%,-0.9%,13.9%
O=C(Oc1ccc(Cl)cc1)c1ccc(N2CCOCC2)c([N+](=O)[O-])c1,-2.6%,-32.7%,4.4%,2.8%,-4.9%,10.7%,-5.3%,nt
CC(=O)Cn1ncc(N(C)Cc2ccccc2)c(Cl)c1=O,nt,1.5%,5.9%,?,18.3%,-9.8%[46.1 µM],nt,8.2%
O=C(COc1ccc(Cl)cc1)NCCNc1ccc([N+](=O)[O-])cc1,nt,-1.1%,0.0%,nt,-15.3%,nt,nt,-15.0%
Cc1ccc(S(=O)(=O)NCc2nc3nc(C)cc(C)n3n2)cc1,10.9%,nt,nt,-31.8%[46.1 µM],6.7%,1.2%[46.1 µM],-0.5%,nt
COC(=O)c1ccccc1NC(=O)COC(=O)CO/N=C(\C)c1ccc2c(c1)OCO2,nt,?,-4.5%,3.0%,-3.6%,4.9%,nt,-4.7%
COc1ccc(C(=O)NC2CCN(C(=O)Nc3ccc(F)cc3)CC2)cc1,nt,-3.9%,1.8%,2.6%,-6.2%,13.2%,nt,4.2%
O=C(/C=C/c1ccccc1Cl)NCc1ccccc1,0.0%,-1.1%,-5.0%,5.7%,62.0%[activator],-20.7%,-1.0%,14.3%
COc1ccc(C2=NS(=O)(=O)N(C)C(C(=O)N3CCCCC3C)=C2)cc1 (stereo not given),nt,7.2%,1.3%,nt,4.3%,nt,nt,1.1%
COc1ccc(NC(=O)c2ccccc2NC(=O)c2cccs2)cc1,nt,-0.4%,0.9%,22.2%[46.1 µM],-21.4%,-18.7%[46.1 µM],nt,12.0%
Cn1cnnc1SCc1ccccc1,-14.1%,-2.3%,1.7%,-2.0%,-24.9%,7.2%,2.6%,4.1%
Cc1nc(NC(=O)CSc2nnc(-c3ccncc3)n2C)sc1C,nt,3.6%,2.8%,7.3%[46.1 µM],-3.8%,3.2%[46.1 µM],nt,3.4%
CCOC(=O)c1c(NC(=O)c2cc(C)oc2C)sc(C(=O)Nc2ccc(Cl)cc2)c1C,?,1.4%,13.5%,-3.0%,38.6%[activator],?,5.5%,3.0%
COc1ccccc1-c1nnc(Sc2nc([N+](=O)[O-])nn2C)o1,-0.9%,13.9%,11.2%,?,28.2µM*,-27.1%,0.5%,-2.8%
CCCCNC(=O)c1ccc2c(c1)C(=O)N(Cc1ccncc1)C2=O,nt,2.5%,-9.4%,10.0%,-9.8%,-0.1%,nt,0.1%
COc1cccc(/C=N/N2C(=O)CSC2=S)c1O,-28.5%,7.2%,26.4%,?,0.7%,8.0%,?,4.8%
COc1ccc(C2N(C(=O)CN3CCOCC3)CCN2S(=O)(=O)c2ccccc2)cc1 (stereo not given),3.9%,-5.2%,-4.4%,3.7%,18.9%,-6.7%,0.0%,1.9%
O=C(NNc1c(Cl)cncc1Cl)c1cccs1,nt,0.4%,0.5%,10.7%[46.1 µM],-17.3%,-4.3%[46.1 µM],nt,1.8%
C/C(=N\NC(=O)C(c1ccncc1)N1CCOCC1)c1ccc(Br)cc1 (stereo not given),3.9%,-2.2%,0.1%,-0.1%,-13.8%,-10.6%,-5.4%,-6.4%
CC1CCN(c2ccc(C(=O)O)cc2)CC1,0.6%,-2.0%,-51.6%,?,20.4%,5.7%,10.7%,-9.2%
Cc1cc(C(=O)NNCc2ccccc2)no1,13.4%,nt,nt,nt,20.1%,nt,3.7%,7.2%[18.4 µM]
COc1ccc(NC(=O)c2cc(-c3ccccc3O)n[nH]2)cc1Cl,nt,2.1%,6.6%,?,7.3%,-2.1%[46.1 µM],nt,-13.4%
CC1(c2ccccc2)NC(=O)N(CC(=O)NC(=O)NCc2ccco2)C1=O (stereo not given),-7.6%,0.7%,3.0%,22.5%,-17.5%,-2.8%,2.0%,16.6%
COc1ccc(C(=O)OCC(=O)c2ccc(Br)s2)c(OC)c1,nt,-0.5%,nt,11.1%,30.4%[activator],?,nt,-11.3%
CC1(NC(=O)c2cccc(S(=O)(=O)N3CCN(c4ccc(F)cc4)CC3)c2)CCS(=O)(=O)C1 (stereo not given),nt,-12.6%,nt,-9.5%,?,9.5%,nt,26.6%
COc1ccc(/C=C/C(=O)NC(=S)NN2CCCCC2c2cccnc2)cc1 (stereo not given),1.1%,0.5%,5.6%,-1.0%,36.6%[activator],-22.3%,?,-9.3%
N#Cc1ccc(CSc2nc(N)cc(N)n2)cc1,nt,15.4%,?,13.5%[46.1 µM],22.3%,5.7%[46.1 µM],nt,3.6%
Cc1cc(N2CCN(c3cccc(C(F)(F)F)c3)CC2)n2ncnc2n1,?,1.6%,-3.8%,-26.8%,0.0%,-27.2%,-3.3%,-1.1%
O=C(NCc1ccc(F)cc1)c1cccc2c1C(=O)c1ccc(N3CCOCC3)cc1S2(=O)=O,nt,2.1%,nt,2.0%,-8.9%,nt,nt,3.4%
CCCCNC(=O)C1(NC(=O)Nc2ccc(C)cc2)CCCCC1,nt,1.2%,nt,-0.9%[46.1 µM],22.3%,4.3%,nt,-15.6%
O=C(CSc1nc2ccccc2s1)N/N=C/c1ccco1,-1.8%,-7.3%,-2.1%,0.0%,18.4%,5.7%,-3.3%,13.5%
N#C/C(=N\Nc1cc(Cl)cc(Cl)c1)c1nnc2n1CCCCC2,?,9.4%,8.6%,14.4%,?,14.8%,?,9.4%
O=C(c1cc(-c2ccc(Cl)c(Cl)c2)on1)N1CCOCC1,nt,-1.7%,8.1%,?,49.8%[activator],?,nt,-3.1%
CCN(C(=O)c1cn(C)c(=O)c2cc(OC)c(OC)cc12)c1cc(C)ccc1C,20.3%,0.1%,-0.7%,-1.3%,6.3%,?,1.7%,0.6%
O=C(O)Cn1cc(/C=C2\C(=O)NC(=O)N(Cc3ccco3)C2=O)c2ccccc21,nt,5.6%,nt,nt,-9.5%,-18.8%,nt,3.0%
CCc1cc(C(=O)NNC(=S)NC(C)c2ccccc2)cs1 (stereo not given),-2.0%,4.2%,-5.2%,-16.1%,-25.0%,-13.9%,6.8%,3.9%
Cc1ccc(N(CC(=O)N/N=C/c2cccs2)S(C)(=O)=O)cc1,3.8%,19.5%,13.9%,?,45.8%[activator],2.2%,-5.0%,0.0%

# Pulled by compound from above:
SMILES,Cruzain noTriton,SARS PLpro yeast,NS1 function inh,Marburg entry inh,StopGo reporter,Lassa entry inh,Cruzain inh Det,RE007 growth inh
O=C(NCc1ccc(F)cc1)c1cccc2c1C(=O)c1ccc(N3CCOCC3)cc1S2(=O)=O,nt,2.1%,nt,2.0%,-8.9%,nt,nt,3.4%
N#Cc1ccc(CSc2nc(N)cc(N)n2)cc1,nt,15.4%,?,13.5%[46.1 µM],22.3%,5.7%[46.1 µM],nt,3.6%

# Hits appear at their usual frequency, and some 4.5% of all compounds hit somewhere here.
